Bioassay records from PubChem.
CSC inhib – cancer stem cell viability inhibitors, primary screen, luminescence; cancer stem cell-like cells viability; inhibition, % at 7.5 µM; hit rate 1.1% among 300,000; AID 2717, 2010;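 active = mean at 75% or more and at least half the replicates too; tested in HMLE shEcad cells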;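 also: 0% = median of negative and 100% = median of positive control wells; the first replicate is given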
PABP polyA inh – PABP poly(A) RNA binding inhibitors, primary screen, biochemical, fluorescence polarization, uHTS; Polyadenylate-binding protein 1 (Homo sapiens), P11940; inhibition, % at 35 µM; hit rate 1% among 290,000;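 active = 50% or more with normal probe brightness, or confirmed in later tests; about a fifth of its hits are not listed in these tables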;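 also: calls also rest on retests at 20 µM and on dose response follow-up; controls were probe without protein and protein plus probe with vehicle; some compounds called inactive have numbers as strong as hits; many hits fall short of the cut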
Target sequence (P11940 whole entry, looked up): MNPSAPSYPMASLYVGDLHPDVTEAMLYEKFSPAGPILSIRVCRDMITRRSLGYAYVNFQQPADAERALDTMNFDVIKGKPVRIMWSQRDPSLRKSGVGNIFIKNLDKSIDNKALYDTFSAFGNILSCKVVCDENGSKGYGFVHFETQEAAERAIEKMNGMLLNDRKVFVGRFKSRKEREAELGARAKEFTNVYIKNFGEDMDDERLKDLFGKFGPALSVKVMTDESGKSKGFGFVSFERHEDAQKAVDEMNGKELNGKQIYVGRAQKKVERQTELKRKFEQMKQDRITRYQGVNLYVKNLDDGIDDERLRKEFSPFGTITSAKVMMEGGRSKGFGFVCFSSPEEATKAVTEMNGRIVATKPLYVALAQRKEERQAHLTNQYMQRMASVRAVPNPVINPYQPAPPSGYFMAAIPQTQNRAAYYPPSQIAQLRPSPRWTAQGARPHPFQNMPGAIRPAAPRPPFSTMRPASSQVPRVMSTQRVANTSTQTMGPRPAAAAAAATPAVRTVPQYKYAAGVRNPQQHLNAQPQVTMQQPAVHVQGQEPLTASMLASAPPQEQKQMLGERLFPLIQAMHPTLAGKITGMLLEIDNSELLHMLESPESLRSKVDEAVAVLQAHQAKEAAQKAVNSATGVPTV
UUG fidelity – modulators of yeast start codon fidelity, primary screen, whole organism, S. cerevisiae, single point, plate reader. S. cerevisiae UUG-firefly luciferase reporter, luminescence/redox ratio. activity score, % at 18.7 µM. hit rate 0.13% among 350,000. AID 602363, 2012;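 active = replicate mean at a twofold rise or more, about +100% in these data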;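 also: firefly luciferase made from a UUG start codon reports start codon fidelity; reporter light over untreated wells divided by growth signal over untreated wells; some hits fall short of that in this replicate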
Rce1 inh – yeast Rce1p protease inhibitors, primary screen, biochemical, fluorescence, cell-free homogeneous; hit rate 0.27% among 290,000; AID 2563, 2010; CAAX prenyl protease 2 (Saccharomyces cerevisiae (strain ATCC 204508 / S288c)), Q03530; yeast membranes, quenched prenylated peptide cleavage fluorescence; calls only;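 active = fall in fluorescence gain of 50% or more versus controls, with final raw signal at or below 3038400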;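 also: plate controls were neutral control wells for no effect and wells lacking membranes for full effect; tested at 10 µM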
MT1-MMP act inh – blockers of MT1-MMP proenzyme processing, primary screen, HT1080 RFP-PRO-GFP cells, GFP/RFP fluorescence | hit rate 0.061% among 360,000 | GFP/RFP ratio fluorescence, overnight; percent of plate control window, DMSO zero | Matrix metalloproteinase-14 (Homo sapiens), P50281 | GFP/RFP ratio change, % at 20 µM | AID 651647, 2012;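 active = GFP/RFP ratio change of at least 30% with cell ATP level not reduced by more than half and red fluorescence within 50% of control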; also: strong numbers were not always called active
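system = RFP-PRO-GFP reporter HT1080 cells | dosing = 20 µM single dose, 1% DMSO | timing = overnight cell settling, then overnight compound exposure, 37 °C, 5% CO2 | read-out basis = GFP/RFP fluorescence ratio | controls = DMSO and RFP-L50D-GFP cell wells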
HIV Env fusion – inhibitors of HIV-1 Env-driven cell-cell fusion, primary screen, HeLa-JRFL effector, CEM21 target cells, luciferase; inhibition, % at 12.3 µM; hit rate 1.1% among 360,000; AID 651610, 2012;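 active = mean replicate inhibition score of at least 50 and every replicate individually at or above 50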;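 also: 0% = plate neutral controls and 100% = maraviroc near 300 nM; one replicate is shown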
eIF4H FP inh – human eIF4H binding inhibitors, primary screen, translation initiation inhibitor project, biochemical, uHTS, fluorescence polarization. Eukaryotic translation initiation factor 4H (Homo sapiens), Q15056. eIF4H fluorescence polarization binding assay. inhibition, % at 35 µM. hit rate 0.94% among 290,000;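 active = 50% or more with normal probe brightness, or confirmed in later tests; about a fifth of its hits are not listed in these tables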;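 also: calls also rest on retests at 20 µM and on dose response follow-up; 0% = protein and probe with vehicle and 100% = probe without protein; strong numbers were not always called active; many hits fall short of the cut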
MT1-MMP act inh RFP – recorded beside MT1-MMP act inh, whose call it bears; RFP signal change, %; measured here: RFP expression control read;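 0 = vehicle wells; hits needed this value within 50% of zero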
* marks the source's active call; other numbers are inactive results; i = inactive; . = not tested or not shown; & = joins results of further samples.

1: Cn1c(=O)c(=O)n(C)c2cc(S(=O)(=O)N3CCCCC3)ccc21
2: O=C(COc1ccc(NC(=O)c2cccs2)cc1)c1ccc(F)cc1
3: Cc1ccc(S(=O)(=O)N(C)CC(=O)OCC(=O)NC(=O)NC(C)C)cc1
4: c1ccc(CN2CCC(N3CCN(Cc4ccc5c(c4)OCO5)CC3)CC2)cc1
5: Cc1ccc(SCC(=O)N(Cc2nc(-c3ccccc3)no2)C(C)C)cc1
6: CCc1ccc(C(=O)Cn2ncc(Cl)c(Cl)c2=O)cc1
7: O=C(NCCCn1ccnc1)C(=O)NCC1OCCCN1S(=O)(=O)c1ccc(Cl)cc1 (configuration not stated)
8: O=c1cnn([C@@H]2O[C@H](CO)[C@@H](O)[C@H]2O)c(=O)[nH]1
9: CN(NC(=S)Nc1ccc(OC(F)F)cc1)C(=S)Nc1ccc(OC(F)F)cc1
10: CCSc1ccccc1C(=O)N=C1NC(=O)CC2C(=O)NCCN12 (configuration not stated)

entry no. | 1 | 2 | 3 | 4 | 5 | 6 | 7 | 8 | 9 | 10
Rce1 inh | . | i | i | i | i | i | i | i | i | i
CSC inhib | -4 | 23 | -4 | 24 | 20 | -6 | 8 | 23 | 0 | -4
MT1-MMP act inh | -2 | 3 | 4 | 9 | 5 | -12 | 0 | 0 | 2 | 2
MT1-MMP act inh RFP | 0 | 1 | 4 | -1 | -1 | -7 | 4 | 5 | 2 | 3
PABP polyA inh | 7 | -4 | 3 | -5 | -2 | 1 | 6 | -22 | -2 | 5
UUG fidelity | -20 | -16 | 4 | -19 | -2 | -7 | . | 4 | . | .
HIV Env fusion | -24 | -18 | -24 | 1 | . | . | 11 | . | 12 | 1
eIF4H FP inh | 0 | 3 | -13 | 2 | 5 | 2 | -2 | -6 | -2 | -6

11: COc1ccc(/C=C(\C)c2nc(C)c(-c3ccccc3)c(=O)[nH]2)cc1
12: CC1CCc2c(sc(NC(=S)NC(=O)c3ccccc3)c2C#N)C1 (configuration not stated)
13: CCN(C(=O)COC(=O)/C=C/c1ccc2c(c1)OCO2)c1c(N)n(Cc2ccccc2)c(=O)[nH]c1=O
14: Cc1cc(Cl)ccc1NC(=O)Cn1cncn1
15: Cc1ccc(N(C)S(=O)(=O)c2ccc(-c3cnc(C4CC4)o3)cc2)cc1
16: CCC(=O)Nc1cc(NC(=O)CSc2nnc(C(C)C)n2CC)ccc1C
17: CC[C@]1(C(=O)OC)[C@H]2C(=O)N(C)C(=O)[C@H]2[C@H]2CN=C(SCc3ccc(OC)cc3)N21
18: Cc1ccc(C(=O)Nc2nnc(S(=O)(=O)Nc3ccccc3C)s2)cc1C
19: Cc1ccc(S(=O)(=O)c2nnn3c2nc(N2CCOCC2)c2ccccc23)c(C)c1
20: CCN(CC)CCC=C(c1cccs1)c1cccs1

entry no. | 11 | 12 | 13 | 14 | 15 | 16 | 17 | 18 | 19 | 20
Rce1 inh | i | i | . | i | i | i | . | i | i | .
CSC inhib | -1 | 17 | . | -22 | 72 | -3 | . | . | -3 | .
MT1-MMP act inh | -2 | -3 | 0 | 0 | 5 | -1 | 1 | -3 | -2 | 2
MT1-MMP act inh RFP | -2 | -5 | -2 | 1 | -6 | 2 | 2 | -3 | 1 | -1
PABP polyA inh | 3 | 10 | . | -8 | 3 | 9 | . | -9 | . | .
UUG fidelity | -17 | . | -8 | -14 | -4 | -12 | -8 | 2 | -16 | -4
HIV Env fusion | -10 | -37 | 0 | -3 | -406 | -29 | -9 | 0 | 2 | 9
eIF4H FP inh | -8 | 1 | . | 8 | -16 | -1 | . | -10 | . | .

21: CC(C)=NNc1nc(-c2ccccc2)c(C)s1
22: CCC(C)NC(=O)CSc1ncnc2sccc12 (configuration not stated)
23: COc1ccc(/C=N/c2oc(-c3ccccc3)cc2C#N)cc1
24: COc1ccc(OC)c(CNC(=O)C2CCC(=O)N2C(C)C)c1 (configuration not stated)
25: CCn1c(-c2cc(-c3ccccc3)sc2N)n[nH]c1=S
26: CC(=O)Oc1ccc(C2C3=C(CC(C)(C)CC3=O)Nc3cc4c(cc32)OCCO4)cc1 (configuration not stated)
27: C[C@@H]1CN([C@H](C)CO)C(=O)CCCn2nncc2CO[C@@H]1CN(C)S(=O)(=O)c1cn(C)cn1
28: Cc1ccc(-c2nc3ccccc3c(=O)n2Cc2ccccc2)cc1
29: CCN(CC)S(=O)(=O)c1ccc(N2CCCCC2)c(NC(=O)/C(C#N)=C/c2ccc(OC)cc2)c1
30: CC(=O)c1sc(NC(=O)c2cccs2)nc1C

entry no. | 21 | 22 | 23 | 24 | 25 | 26 | 27 | 28 | 29 | 30
Rce1 inh | i | i | i | i | i | i | . | i | i | i
CSC inhib | -11 | -6 | -2 | -19 | -8 | 6 | . | 12 | 0 | 3
MT1-MMP act inh | -2 | 0 | 2 | 0 | 6 | -4 | 3 | -4 | -2 | -2
MT1-MMP act inh RFP | -3 | -1 | 5 | -1 | -2 | 4 | 3 | -9 | 2 | -1
PABP polyA inh | -5 | -9 | 8 | 8 | 1 | 29 | . | -10 | 3 | 2
UUG fidelity | . | 2 | -41 | -11 | -13 | . | 4&-16 | 13 | -4 | -16
HIV Env fusion | 3 | 8 | . | 10 | -50 | -15 | -20 | -3 | 16 | -16
eIF4H FP inh | 8 | 2 | -2 | -7 | 2 | 0 | . | 5 | 0 | 0

31: NS(=O)(=O)c1ccc(N2N=C(c3ccccc3)CC2c2ccccc2Br)cc1 (configuration not stated)
32: CCOc1ccc(Nc2nc(Cc3nnc(SCC(=O)NC4CCCC4)n3C)cs2)cc1
33: O=C(OCC(=O)N1CCN(Cc2ccccc2)CC1)c1ccc(Cl)cc1
34: COc1cccc(-c2cc(C(=O)Nc3ccc(OC)c(OC)c3)no2)c1
35: CC1(C)CN=C(NC2CCCCC2)S1
36: O=C(CSC1=NS(=O)(=O)c2ccccc2N1)Nc1ccc(F)cc1
37: COC(=O)c1cccc(C(=O)Nc2cnc3ccccc3c2)n1
38: CC1C(=O)N(c2ccc(S(=O)(=O)N(C)C)cc2)C1(/C=C/c1ccccc1)C(=O)NC1CCCC1 (configuration not stated)
39: Cc1ccsc1CN(C)CC(=O)Nc1ccc([N+](=O)[O-])cc1Cl
40: CONc1nc2nonc2nc1NOC

entry no. | 31 | 32 | 33 | 34 | 35 | 36 | 37 | 38 | 39 | 40
Rce1 inh | . | i | i | i | i | i | i | i | i | i
CSC inhib | . | -21 | 11 | 1 | -1 | -5 | -6 | 8 | 24 | -11
MT1-MMP act inh | 0 | 0 | -2 | 6 | 1 | 2 | 2 | -11 | 1 | 1
MT1-MMP act inh RFP | 2 | 2 | 0 | -1 | 4 | 4 | 0 | -12 | -8 | 3
PABP polyA inh | . | 2 | 7 | -12 | -13 | . | 15 | -4 | 12 | 6
UUG fidelity | -24 | -20 | . | . | -27 | -8 | -28 | 0 | -11 | .
HIV Env fusion | 9 | -2 | 11 | -30 | . | -11 | . | -22 | 9 | 3
eIF4H FP inh | . | 10 | 1 | 6 | 6 | . | 14 | -8 | 0 | 5

An excerpt from above in order of molecular weight, low to high.
40: CONc1nc2nonc2nc1NOC
23: COc1ccc(/C=N/c2oc(-c3ccccc3)cc2C#N)cc1
1: Cn1c(=O)c(=O)n(C)c2cc(S(=O)(=O)N3CCCCC3)ccc21
2: O=C(COc1ccc(NC(=O)c2cccs2)cc1)c1ccc(F)cc1
26: CC(=O)Oc1ccc(C2C3=C(CC(C)(C)CC3=O)Nc3cc4c(cc32)OCCO4)cc1 (configuration not stated)
27: C[C@@H]1CN([C@H](C)CO)C(=O)CCCn2nncc2CO[C@@H]1CN(C)S(=O)(=O)c1cn(C)cn1

entry no. | 40 | 23 | 1 | 2 | 26 | 27
Rce1 inh | i | i | . | i | i | .
CSC inhib | -11 | -2 | -4 | 23 | 6 | .
MT1-MMP act inh | 1 | 2 | -2 | 3 | -4 | 3
MT1-MMP act inh RFP | 3 | 5 | 0 | 1 | 4 | 3
PABP polyA inh | 6 | 8 | 7 | -4 | 29 | .
UUG fidelity | . | -41 | -20 | -16 | . | 4&-16
HIV Env fusion | 3 | . | -24 | -18 | -15 | -20
eIF4H FP inh | 5 | -2 | 0 | 3 | 0 | .

Further compounds follow.
41: O=C1CC(c2cccnc2)c2cc3c(cc2N1)OCCO3 (configuration not stated)
42: COc1ccccc1NC(=O)CCSc1nnc(-c2ccncc2)o1
43: COc1ccc(C(=O)Nc2ccc(NC(=O)c3cccs3)cc2)cc1[N+](=O)[O-]
44: COc1ccc(/C=N/NC(=O)c2ccc3c(c2)NC(=O)C(C)(C)O3)cc1OC
45: CCS(=O)(=O)c1nc(S(=O)(=O)c2ccc(C)cc2)c(NCc2ccccn2)s1
46: O=C(COC(=O)c1c2c(nc3ccccc13)CCCCC2)c1ccc(Cl)s1
47: Cc1cccc(C)c1NC(=O)C1CCCNC1 (configuration not stated)
48: CC(C)OCCCn1c(=O)c2ccccc2n2c(CCC(=O)NC3CCN(Cc4ccccc4)CC3)nnc12
49: Cc1cccc(C(C#N)c2ccc(Cl)nn2)c1 (configuration not stated)
50: Cc1cc(C)n2nc(SCC(=O)N3CC(C)CC(C)C3)nc2n1 (configuration not stated)

entry no. | 41 | 42 | 43 | 44 | 45 | 46 | 47 | 48 | 49 | 50
Rce1 inh | i | i | i | i | i | i | i | i | i | .
CSC inhib | -2 | -8 | -5 | 8 | -7 | 1 | -9 | 8 | -3 | 3
MT1-MMP act inh | -2 | 0 | 3 | 4 | -5 | -1 | 6 | -1 | 3 | 0
MT1-MMP act inh RFP | 0 | 1 | 7 | 2 | 0 | 4 | 3 | 2 | 2 | 5
PABP polyA inh | -9 | 0 | -5 | 7 | -2 | -6 | 4 | 4 | 4 | .
UUG fidelity | -24 | . | . | 10 | . | . | -7 | 9 | . | -9
HIV Env fusion | 6 | 2 | -7 | 21 | -24 | 35 | -58 | -7 | 15 | 11
eIF4H FP inh | -3 | 6 | -10 | 4 | 5 | 6 | 5 | 3 | -11 | .

51: COc1ccccc1CN1CCN(C(c2ccccc2)c2ccccc2)CC1
52: Cc1nnc(NC(=O)C(C)Sc2nnc(-c3ccco3)n2C)s1 (configuration not stated)
53: CC(=O)NCCNC(=O)CNC(=O)c1ccc(Cl)cc1
54: Cc1c(NC(=O)Nc2cccc(C#N)c2)c(=O)n(-c2ccccc2)n1C
55: CN(C(=O)c1ccncc1)c1nnc(-c2cnccn2)s1
56: Cc1cccc(C)c1NC(=O)CSc1ncnc2nc[nH]c12
57: O=C(Nc1cccnc1)c1cccc(F)c1
58: Cc1ccc(/C=C/C(=O)NCc2cccs2)o1
59: COc1cccc(C2CC(c3cccs3)=NN2C(=O)CCC(=O)O)c1OC (configuration not stated)

entry no. | 51 | 52 | 53 | 54 | 55 | 56 | 57 | 58 | 59
Rce1 inh | i | i | i | i | i | i | i | i | i
CSC inhib | 1 | 2 | -6 | -14 | 11 | -1 | 16 | 26 | -4
MT1-MMP act inh | -8 | -3 | 3 | 0 | 7 | 6 | -8 | -6 | -5
MT1-MMP act inh RFP | -2 | -5 | 4 | 3 | 2 | 2 | 0 | 2 | -4
PABP polyA inh | 4 | 13 | 18 | -1 | 11 | 7 | -2 | 19 | -2
UUG fidelity | 0 | . | . | 14 | -10 | -23 | . | . | -8
HIV Env fusion | -8 | 6 | -21 | -9 | -270 | . | -26 | 3 | -5
eIF4H FP inh | -13 | -6 | 1 | -7 | -5 | -5 | -4 | 2 | 0

Compounds as they come; 3% or so of the library scored in one or more.
